Source: PubChem BioAssay
gsp antagonist – qHTS for Antagonists of gsp, the Etiologic Mutation Responsible for Fibrous Dysplasia/McCune-Albright Syndrome: qHTS | gsp-mutant cells, cAMP HTRF, 30 min; control for the full effect not named in the record | Potency, µM (series often up to 76.9 µM), without a hit: at the top dose activity change, negative = inhibition, actives largely listed as inhibitors | 340,000 tested, 0.4% active; active = falling curve of any shape with a large fitted effect; inconclusive = falling curve, mostly with a smaller effect; inactive = flat or rising curve; cell line not stated here;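 note: intracellular cAMP measured with PDE inhibitor Ro 20-1724 present during compound exposure; potency is the fitted concentration of half-maximal effect; % is set by controls: 0 for no effect and ±100 for the full control effect; nearly all actives have a fitted effect of over 65% in size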
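Cells, 2000/well, grown 16–24 h in DMEM 10% FBS with 0.5 mg/ml G418, then compounds plus […] (300 uM addition stock), 30 min at 37C. cAMP read by HTRF (cAMP-d2 and anti-cAMP antibody-K in lysis buffer) after 30 min RT.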
ClpP mod – qHTS Assay for Activators of ClpP; ATP-dependent Clp protease proteolytic subunit (Bacillus subtilis (strain 168)), P80244; purified B. subtilis ClpP, FRET peptide cleavage, 20 min; Potency, µM (highest dose often 57.5 µM), without a hit: at the top dose activity change, negative = active; 340,000 tested, 1.9% active; active = well fitted falling curve with a large enough effect; inconclusive = small, poorly fitted or top-dose-only effect; inactive = no such curve, though single readings can be large or run the other way; note: potency is the fitted concentration of half-maximal effect; the source files actives as falling curves though it sought activators and does not explain the sign; nearly all actives have a fitted effect of over 65% in size; many hits overshoot -100%
Target sequence (P80244 whole entry, looked up): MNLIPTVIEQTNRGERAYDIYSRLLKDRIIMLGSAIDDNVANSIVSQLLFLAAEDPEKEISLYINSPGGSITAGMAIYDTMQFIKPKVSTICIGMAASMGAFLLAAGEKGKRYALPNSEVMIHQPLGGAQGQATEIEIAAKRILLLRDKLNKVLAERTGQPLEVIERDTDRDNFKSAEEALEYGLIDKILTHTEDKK
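FRET quenching reversal measured ClpP activation: 10 microg/mL B. subtilis ClpP at pH 8 with the FRET-FV decapeptide, read at 430 nm after 320 nm excitation. The 20-min minus 0-min signal was scaled between DMSO/no-enzyme wells and ADEP (5.8 microM final).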
Menin-MLL FL inh – qHTS Assay for Inhibitors Targeting the Menin-MLL Interaction in MLL Related Leukemias: Competition With Fluorescein Labeled MLL-derived Peptide | 290,000 tested, under 10 active | Fluorescence polarization, fluorescein-MLL peptide displacement from menin | FP activity change, % at 61.4 µM; inconclusive = falling polarisation curve, or a change in total fluorescence; inactive = total fluorescence flat and polarisation flat or rising; no compound was filed as active; the % refers to the polarisation; negative = inhibition;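 note: % of control where 0% means no effect; inhibitors lower the polarisation; unlabelled MLL peptide was the positive control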
Sfp inh – qHTS Assay for Inhibitors of Bacillus subtilis Sfp phosphopantetheinyl transferase (PPTase); Biochemical Sfp PPTase activity, qHTS; Potency, µM, for inactives: max response, negative = inhibition, hits mostly inhibitors; 310,000 tested, 3.5% active; AID 1490, 2009; active = well fitted inhibition curve with a large enough effect; inconclusive = small, poorly fitted or top-dose-only effect, or another doubt; inactive = no such curve, though single readings can be large or run the other way;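 note: the enzyme is Sfp with the accession as filed and its product quenches rhodamine fluorescence; potency is the fitted concentration of half-maximal effect; 0% = enzyme reaction without inhibitor and -100% = no enzyme wells; top concentration of the series not given in the record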
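Compounds were incubated with enzyme (final 15 nM) for 15 min at room temperature before substrate addition started the reaction. Fluorescence at 525 nm excitation, 598 nm emission was recorded immediately and after 30 minutes.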
CtBP-E1A blk – qHTS Assay for Inhibitors of the CtBP/E1A Interaction; CtBP / adenovirus E1A interaction (AlphaScreen); AlphaScreen GST-E1A/His-CtBP binding, 1536-well; stronger effect = lower value; control for the full effect not named in the record; activity change, % (no concentration beside the values); 340,000 tested, 0.49% active; AID 651724, 2012; in the data active means activity change below about -65%; inconclusive means about -30% to -65%; inactive means above about -30%; note: % is set by controls: 0 for no effect and ±100 for the full control effect; compound concentration not given in the record
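Steps: dispense buffer (Tris pH 8.0, NaCl 300 mM, TCEP 1 mM, BSA, Tween 20); add 5X protein mix (GST-E1A, His-CtBP, 125 nM each); pin 23 nL compound; 2 h at 37 °C, dark; add 5X beads (50 ug/mL); 1 h; read.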
gsp ag – qHTS for Agonist of gsp, the Etiologic Mutation Responsible for Fibrous Dysplasia/McCune-Albright Syndrome: qHTS. gsp mutant cells, cAMP HTRF, 30 min; control for the full effect not named in the record. Potency, µM (highest dose often 76.9 µM), for the others: at the highest dose activation (cAMP increase), actives largely listed as activators. 340,000 tested, 0.13% active. AID 624287, 2012; active = well fitted activation curve with a large enough effect; inconclusive = small, poorly fitted or top-dose-only effect, or another doubt; inactive = no such curve, though single readings can be large or run the other way; cell line not stated here;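 note: phosphodiesterase inhibitor Ro 20-1724 added with compounds to block cAMP breakdown; potency is the fitted concentration of half-maximal effect; nearly all actives have a fitted effect of over 60% in size; about a fifth of the inactives were tested at one dose only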
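Cells stably selected in G418 were plated at 2000/well, grown 16-24 hr, then given compounds in DMSO with the PDE inhibitor […] (300 uM solution added) for 30 min at 37C; cAMP was read by HTRF.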
TRPV1 PAM – HTS Assay for Compounds that Act as Potentiators of the Vanilloid Receptor 1; Transient receptor potential cation channel subfamily V member 1 (Homo sapiens), Q8NER1; potentiation, % at 8.33 µM; 320,000 tested, 0.02% active; TRPV1-expressing cells, Fluo-8 calcium influx, capsaicin EC20 potentiation; host cell line not named in the record; control for the full effect not named in the record; active means potentiation above 80%; inconclusive means 30% to 80%; inactive means below 30%; note: 0% is about no effect
Target sequence (Q8NER1 whole entry, looked up): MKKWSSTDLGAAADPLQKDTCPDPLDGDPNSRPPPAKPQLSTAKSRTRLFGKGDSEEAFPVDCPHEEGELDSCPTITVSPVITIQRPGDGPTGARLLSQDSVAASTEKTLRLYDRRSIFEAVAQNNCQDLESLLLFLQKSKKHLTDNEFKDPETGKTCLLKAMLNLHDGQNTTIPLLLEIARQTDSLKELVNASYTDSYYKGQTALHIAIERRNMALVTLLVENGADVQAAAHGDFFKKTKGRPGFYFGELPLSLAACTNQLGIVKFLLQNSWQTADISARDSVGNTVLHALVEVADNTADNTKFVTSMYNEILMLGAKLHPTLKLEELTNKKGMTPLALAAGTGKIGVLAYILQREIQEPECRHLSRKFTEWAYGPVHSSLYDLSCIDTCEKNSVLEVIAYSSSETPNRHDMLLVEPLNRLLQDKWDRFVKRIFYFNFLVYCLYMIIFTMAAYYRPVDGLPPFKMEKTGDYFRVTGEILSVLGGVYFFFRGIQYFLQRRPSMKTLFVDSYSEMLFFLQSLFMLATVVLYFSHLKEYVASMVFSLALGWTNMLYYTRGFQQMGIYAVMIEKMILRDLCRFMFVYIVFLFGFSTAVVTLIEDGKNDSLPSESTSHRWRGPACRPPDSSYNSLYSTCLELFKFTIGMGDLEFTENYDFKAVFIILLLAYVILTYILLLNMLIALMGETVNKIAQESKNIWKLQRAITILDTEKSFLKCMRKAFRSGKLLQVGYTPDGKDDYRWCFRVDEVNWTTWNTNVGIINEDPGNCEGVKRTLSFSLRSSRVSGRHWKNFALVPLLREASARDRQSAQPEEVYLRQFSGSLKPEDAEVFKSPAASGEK
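TRPV1-expressing cells were cultured overnight at 35.5C and loaded with Fluo-8 calcium dye for 40 to 90 min at room temperature. After a 10 s baseline, compound was added and calcium influx was read kinetically for 3 min (ex 480/em 520 nm).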
Active calls of the source: *; ? = inconclusive; . = not tested or not shown; [ ] = dose if it differs, or a comment.

SMILES	gsp antagonist	ClpP mod	Menin-MLL FL inh	Sfp inh	CtBP-E1A blk	gsp ag	TRPV1 PAM
COc1cccc(N2C(=O)C3CCCN3C2c2ccc(F)cc2)c1 (configuration not stated)	-12.0%	-0.5%	3.5	1.4%	-1.4	-37.9%[inhibitor]	4.4
CCn1c(CC(=O)Nc2ccccc2)nnc1SCC(=O)Nc1nnc(C)s1	3.4%	.	-2.6	3.3%	0.0	-36.6%[15.4 µM]	1.0
COc1cccc(-n2nnnc2SCC(=O)NCc2ccco2)c1	4.5%	1.2%	-0.9	-26.3%	-3.0	10.0%	15.1
c1ccc(OCCn2cnc3ccccc32)cc1	2.7%	1.0%	2.2	14.9%	-1.1	-40.5%[inhibitor]	-9.7
COc1ccc(Nc2nc(N3CCN(S(=O)(=O)N(C)C)CC3)nc3ccccc23)cc1	-24.5%	-6.2%	0.4	-1.0%	8.7	5.3%	19.2
Cc1ccc(C(=O)N2CCN(Cc3ccccc3)CC2)cc1S(=O)(=O)N1CCOCC1	1.2%	0.2%	.	.	-0.4	4.7%	2.6
Cc1nn(C)cc1-c1cc(C(=O)O)c2ccccc2n1	-8.7%	.	-1.0	0.2%	.	14.5%[15.4 µM]	7.2
Cc1cc(C)c2c(N)c(S(=O)c3ccc(C(C)(C)C)cc3)sc2n1 (configuration not stated)	-21.9%	-5.6%	-0.6	-21.4%	8.3	6.3%	0.2
Nc1nnc(COc2ccc(Br)cc2Br)s1	-0.2%	1.4%	0.8	5.2%	7.5	-37.6%[inhibitor]	-7.8
CCOc1cc(/C=N/NC(=O)CSc2nncn2C)ccc1OCc1ccccc1	7.6%	-21.5%	9.0	-14.5%	0.0	-9.6%[15.4 µM]	8.0
COc1cccc(C2C(C(=O)c3cccs3)=C(O)C(=O)N2CCN(C)C)c1OC (configuration not stated)	-1.2%	-1.6%	-3.1	10.3%	2.9	19.7%	-0.6
CC(C)C(=O)Nc1ccc(C(=O)NNC(=O)c2cccs2)cc1	1.6%	-2.9%	6.2	-14.7%	0.9	-24.9%	1.1
Fc1ccc(CN2CCSCC2)cc1Br	-23.9%	-1.2%	-0.4	-16.9%	-12.0	8.7%	10.3
COc1ccc(C2=NOC(C(=O)Nc3ccc(C(C)=O)cc3)C2)cc1OC (configuration not stated)	-2.3%	0.1%	5.2	-1.8%	-2.1	21.8%	.
Cc1ccc(C2C(C(=O)O)c3ccccc3C(=O)N2C)o1 (configuration not stated)	4.6%	-0.7%	1.5	-4.5%	7.2	-38.0%	-12.9
O=C(OCc1ccccc1)c1cccnc1Cl	15.0%	.	-0.3	10.4%	-7.4	7.9%[15.4 µM]	7.1
COc1cc2oc(=O)cc(-c3ccc(-c4ccc(CO)cc4)cc3)c2c(OC)c1OC	?	-10.9%	0.5	-11.1%	-4.6	.	.
Clc1ccc(CNCCC2=CCCCC2)cc1	9.2%	-0.4%	-1.0	6.0%	-0.3	?	7.5
OC(CN1CCN(Cc2ccccc2)CC1)c1ccccc1 (configuration not stated)	5.7%	1.0%	-2.4	-1.0%	.	-2.2%	-6.4
O=C(O)CC1(CC(=O)N2CCN(CCO)CC2)CCCC1	.	.	-0.1	6.2%	0.0	-3.5%[15.4 µM]	17.9
CCc1sc(N(C(=O)Cc2ccccc2)c2ccccc2)nc1-c1ccccc1	9.7%	-0.7%	-0.5	7.5%	2.8	-8.4%	-1.3
Cc1ccc(C(=O)OCC(=O)NCCc2ccccc2)cc1S(=O)(=O)N1CCOCC1	2.7%	-2.5%	.	.	-23.7	18.1%	-0.8
Cc1nn(CCc2n[nH]c(=S)n2C2CCCCC2)c(C)c1Br	-1.2%	2.3%	-0.8	-13.4%	0.5	-58.9%[inhibitor]	5.6
O=S(=O)(CCSc1nc2ccccc2s1)c1nc2ccccc2s1	-5.1%	0.8%	0.6	8.6%	3.8	-3.6%	5.8

The closing 2 records of the part above are carried over, then new ones follow:
SMILES	gsp antagonist	ClpP mod	Menin-MLL FL inh	Sfp inh	CtBP-E1A blk	gsp ag	TRPV1 PAM
Cc1nn(CCc2n[nH]c(=S)n2C2CCCCC2)c(C)c1Br	-1.2%	2.3%	-0.8	-13.4%	0.5	-58.9%[inhibitor]	5.6
O=S(=O)(CCSc1nc2ccccc2s1)c1nc2ccccc2s1	-5.1%	0.8%	0.6	8.6%	3.8	-3.6%	5.8
Cc1cc(NC(=O)C(C)SCC(=O)Nc2ccccc2OC(F)F)no1 (configuration not stated)	5.0%	-1.7%	2.5	2.9%	0.0	-37.3%[inhibitor]	1.6
CCC(=O)Oc1oc(-c2ccccc2)nc1C=Nc1ccccc1OC	8.2%	-2.5%	2.2	-16.9%	3.6	6.4%	-7.7
COc1ccc(OC)c2c(N)c(C#N)c(C(F)(F)C(F)(F)F)nc12	4.5%	?	3.8	13.9%	0.0	?	0.8
CCC(=O)N1CCN=C1SCc1ccccc1Cl	2.7%	0.1%	-1.5	-4.0%	7.4	1.1%	28.8
COC(=O)c1sccc1-n1cccc1C(=O)N1CCOCC1	9.6%	-1.2%	5.1	6.1%	-2.9	-15.7%	20.7
Cc1csc(=O)n1CC(=O)OCC(=O)NCc1ccc(F)cc1	9.1%	?	.	.	-7.0	-1.4%	-3.9
CCCNc1c(NC(C)=O)c(=O)oc2ccccc12	2.9%	-2.3%	.	19.9%	11.2	-3.7%	-15.3
CCO[C@@H]1OC(C(=O)N2CCOCC2)=C[C@H](c2ccc(Br)cc2)[C@H]1CCCO	-6.7%	-1.3%	2.6	1.5%	4.7	.	-19.0
NS(=O)(=O)c1ccc(CCNCC(=O)NC2CC2)cc1	4.6%	.	-4.6	-0.7%	12.2	7.5%[15.4 µM]	-40.6
CC(C)(C)OC(=O)N1CCC[C@H]1C(=O)NCC1CCC(C(=O)O)CC1 (some centres not stated)	3.2%	-0.6%	2.6	4.5%	5.6	-28.6%	15.5
COc1ccc(C)cc1C(=O)CCC(=O)NC1CCCCC1	-1.7%	.	-5.3	12.2%	0.0	29.5%	-8.1
O=S(=O)(c1cccs1)n1nnc2ccccc21	8.0%	1.0%	3.3	14.8%	-0.7	?	-6.4
COCCN(C(=O)C(C)C)c1nnc(-c2ccc(C)cc2)s1	-8.8%	?	5.2	?	3.2	-33.9%[inhibitor]	-46.8
CCOC(=O)c1c(C)c(C(=O)N2CCN(c3ccc(F)cc3)CC2)c(C)n1C	3.0%	0.0%	2.5	-6.9%	-1.5	0.9%	7.6
CN(C)c1ccc(/C=C/C(=O)c2ccc3c(c2)OCCO3)cc1[N+](=O)[O-]	10.5%	.	-1.3	-3.3%	-3.4	-0.8%[15.4 µM]	4.0
NNC(=O)c1nc(Cl)c(Cl)c(N)c1Cl	2.3%	-0.5%	-1.0	20.3%	1.6	28.9%	3.0
Cc1nc(CNS(=O)(=O)c2ccc3c(c2)CCCC3)cs1	4.8%	-0.1%	-0.8	-3.6%	1.0	-2.5%	23.2
CCOC(=O)c1sc(NC(=O)CSc2nc3c(c(=O)n2-c2ccc(C)cc2)SCC3)c(C(=O)OCC)c1C	-0.5%	-1.0%	4.6	2.1%	1.3	?	14.4
COC(=O)c1ccc(NC(=O)CCN2CCN(Cc3ccccc3)CC2)cc1	9.7%	-3.5%	3.9	38.4%[activator]	-22.3	7.5%	3.0
COc1cccc(CNn2cnnc2)c1O	0.1%	.	0.6	-8.1%	28.1	12.7%[15.4 µM]	-24.3
COc1ccc(C(=O)N(c2ccc(OC)cc2)S(=O)(=O)c2cccs2)cc1	-5.9%	?	4.8	11.3%	0.4	7.3%	6.1
NS(=O)(=O)c1ccc(CCNC(=O)COC(=O)/C=C/c2ccc(OC(F)F)cc2)cc1	-6.8%	-2.3%	.	.	9.7	12.9%	8.6
c1ccc(-c2noc(-c3cccnc3)n2)nc1	-2.4%	3.8%	6.3	13.6%	-2.5	-1.1%	24.6
Cc1ccccc1SCC(=O)OCC(=O)N1CC(=O)Nc2ccccc21	0.8%	-0.1%	.	.	1.2	-30.6%[inhibitor]	.
COC(=O)c1ccc(C(=O)Nc2ccc3nc(-c4cccnc4)[nH]c3c2)cc1	5.6%	-28.4%	-1.3	13.9%	1.9	?	-49.0
Cc1cccc(-c2nc(CSCC(=O)NCc3cccs3)c(C)o2)c1	-12.8%	-18.8%	1.5	13.9%	-22.2	-33.7%[inhibitor]	1.3
N#Cc1ccc(/C=C/C(=O)c2ccccc2)cc1	1.6%	0.9%	-21.7	-4.7%	.	4.4%	-27.5
O=c1cc(CN2CCN(S(=O)(=O)/C=C/c3ccccc3)CC2)c2ccc(O)cc2o1	?	10µM*	5.5	0.8%	8.2	9.4%	0.2
Cc1ccc(C(=O)NNC(=O)c2ccncc2)cc1C	-10.1%	-0.6%	-0.7	16.7%	9.4	-7.9%	-3.2
O=S(=O)(Nc1nc(SCc2ccc(Cl)cc2)n[nH]1)c1ccc(F)cc1	-6.0%	17.8µM*	5.4	22.0%	6.5	0.8%[15.4 µM]	1.7
CN(C)C1CCCCC=CC(=O)NC1 (configuration not stated)	.	-3.0%	.	.	-9.6	8.6%	.
Cc1ccccc1NC(=O)NC1(C(=O)NCC2CCCO2)CCCCC1 (configuration not stated)	8.3%	.	-0.2	19.5%	-4.3	1.7%	1.5

An excerpt from above in order of their number in gsp ag, falling.
Structure	gsp antagonist	Menin-MLL FL inh	Sfp inh	CtBP-E1A blk	gsp ag
CN(C)C1CCCCC=CC(=O)NC1 (configuration not stated)	.	.	.	-9.6	8.6%
N#Cc1ccc(/C=C/C(=O)c2ccccc2)cc1	1.6%	-21.7	-4.7%	.	4.4%
Cc1ccccc1NC(=O)NC1(C(=O)NCC2CCCO2)CCCCC1 (configuration not stated)	8.3%	-0.2	19.5%	-4.3	1.7%
